Source: PubChem BioAssay (National Center for Advancing Translational Sciences (NCATS))
D2 agonist = agonists of human D2 dopamine receptor (beta-arrestin); P14416; DiscoveRx PathHunter D2 beta-arrestin, luminescence, 90 min; 100% = 57 uM dopamine signal; activation, % (concentration not given with the values); 360,000 tested, 0.084% active; in the data active = activation above about 40%; inconclusive = about 15% to 40%; inactive = below about 15%; note: compound concentration not given in the record; the text of the record calls up to 30% inactive
Target sequence (P14416 whole entry, looked up): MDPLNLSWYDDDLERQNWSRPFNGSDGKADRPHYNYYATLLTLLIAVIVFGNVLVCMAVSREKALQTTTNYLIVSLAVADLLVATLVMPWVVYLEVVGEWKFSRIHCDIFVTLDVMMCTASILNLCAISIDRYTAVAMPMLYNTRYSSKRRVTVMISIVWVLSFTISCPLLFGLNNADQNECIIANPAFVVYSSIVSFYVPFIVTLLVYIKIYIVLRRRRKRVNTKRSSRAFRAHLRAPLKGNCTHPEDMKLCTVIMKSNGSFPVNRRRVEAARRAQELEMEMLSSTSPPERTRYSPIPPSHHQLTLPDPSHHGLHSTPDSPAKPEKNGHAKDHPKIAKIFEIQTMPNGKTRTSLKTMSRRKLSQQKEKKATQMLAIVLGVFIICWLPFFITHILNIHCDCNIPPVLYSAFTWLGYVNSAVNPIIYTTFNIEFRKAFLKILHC
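Agonist mode: compounds alone added to overnight-plated D2 PathHunter cells for 90 min at 37 C, with 57 uM final dopamine (EC100) defining full response. Beta-arrestin recruitment detected by chemiluminescent reagent, read after 1 h at ambient temperature.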
CtBP-E1A blk = inhibitors of CtBP/E1A interaction | AlphaScreen GST-E1A/His-CtBP binding, 1536-well; active compounds read low; control for the full effect not named in the record | activity change, % (no concentration beside the values) | 340,000 tested, 0.49% active; in the data active means activity change below about -65%; inconclusive means about -30% to -65%; inactive means above about -30%; note: % is set by controls: 0 for no effect and ±100 for the full control effect
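Protein mix (5X: 125 nM each GST-E1A, His-CtBP) was incubated with pinned compound 2 h at 37 deg C in dark, in 50 mM Tris pH 8.0 buffer with 300 mM NaCl. Glutathione donor and nickel acceptor beads followed; AlphaScreen signal read after 1 h.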
TRPML1 inh = human mucolipin-1 channel inhibition | TRPML1-inducible cells, Ca2+ dye fluorescence, FDSS; active compounds read low; inhibition of EC80 agonist-evoked calcium signal | 390,000 tested, 0.02% active | AID 624415 | Q9GZU1 | activity change, negative = inhibition, % (concentration not given with the values); in the data active means activity change below about -50%; inconclusive means about -30% to -50%; inactive means above about -30%;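 note: stimulus is agonist 54-4 at its EC80 concentration; % is set by controls: 0 for no effect and ±100 for the full control effect; the text of the record puts the active cut at -80%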
Target sequence (Q9GZU1 whole entry, looked up): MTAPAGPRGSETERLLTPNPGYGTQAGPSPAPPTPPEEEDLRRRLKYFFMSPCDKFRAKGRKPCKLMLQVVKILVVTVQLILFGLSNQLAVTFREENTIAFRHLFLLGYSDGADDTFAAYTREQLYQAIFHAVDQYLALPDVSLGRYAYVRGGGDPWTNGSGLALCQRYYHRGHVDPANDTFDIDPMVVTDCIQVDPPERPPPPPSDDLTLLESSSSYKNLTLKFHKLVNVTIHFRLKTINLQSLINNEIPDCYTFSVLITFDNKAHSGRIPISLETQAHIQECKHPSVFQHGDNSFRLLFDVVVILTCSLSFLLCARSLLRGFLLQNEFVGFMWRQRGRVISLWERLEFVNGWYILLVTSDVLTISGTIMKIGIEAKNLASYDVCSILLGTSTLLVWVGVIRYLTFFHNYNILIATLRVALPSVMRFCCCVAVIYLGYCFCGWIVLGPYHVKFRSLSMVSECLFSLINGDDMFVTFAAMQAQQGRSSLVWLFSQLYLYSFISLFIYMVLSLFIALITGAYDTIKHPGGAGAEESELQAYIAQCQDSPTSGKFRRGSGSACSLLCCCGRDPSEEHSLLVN
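TRPML1-DL cells, Tet-induced overnight (~16 h, 37 °C) at 1,500 cells/well, were loaded with Ca8 no-wash dye plus quencher for 45-90 min at room temperature. Compounds were pinned during FDSS kinetic reading; agonist 54-4 at EC80 (4 uM final) then added.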
PINK1 modulator = changes PINK1 expression. AID 624263. 410,000 tested, 0.2% active. PINK1 immunofluorescence, high-content cytometry, 24 h. Potency, µM (titrated, usually from 76.6 µM), for inactives: at the highest dose activation (PINK1 increase), hits mostly activators; active = well fitted activation curve with a large enough effect; inconclusive = small, poorly fitted or top-dose-only effect; inactive = flat fitted curve, though single readings scatter; cell line not stated here;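 note: potency is the fitted concentration of half-maximal effect; % of control where 0% means no effect; nearly all actives have a fitted effect of over 65% in size; a mitochondrial uncoupler was the plate control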
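Stable cell line, 250 cells/well, 12 h attachment; compounds pinned at 5 concentrations, 24 h; CCCP control. Fixed with nuclear dye, primary antibodies 12 h at 10 degrees C, secondary plus cell stain; laser-scanning cytometer read.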
TRPML1 agonist = agonists of human TRPML1 channel. Q9GZU1. TRPML1-expressing cells, Ca2+ dye fluorescence, FDSS; host cell line not named in the record; reference of the full effect not given here. activation, % (concentration not given with the values). 410,000 tested, 0.12% active. AID 624414; in the data active = activation above about 50%; inconclusive = about 30% to 50%; inactive = below about 30%; note: 0% is about no effect; the text of the record puts the active cut at 80%
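Agonist activity was taken from a 110 s kinetic Ca2+ dye read on the FDSS after pinning compounds onto TRPML1-DL cells. The cells were seeded at 1,500/well with Tet inducer, incubated about 16 h, then dye-loaded at room temperature.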
Six1-Eya2 blk = Six1/Eya2 interaction inhibition; 360,000 tested, 0.56% active; AlphaScreen GST-Six1/His-Eya2 binding, biochemical; active compounds read low; control for the full effect not named in the record; activity change, % (no concentration beside the values); AID 651725; in the data active = activity change below about -65%; inconclusive = about -30% to -65%; inactive = above about -30%; note: % is set by controls: 0 for no effect and ±100 for the full control effect
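Homogeneous AlphaScreen proximity assay pairing GST-Six1 with His-tagged Eya2 (added as 5X mix: 250 nM and 500 nM) in 50 mM Tris pH 8.0, 300 mM NaCl, 1 mM TCEP. Glutathione donor and nickel acceptor beads; 1 h, 37 °C, dark.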
Active calls of the source: *; ? = inconclusive; . = not tested or not shown; & = joins results of further samples; [ ] = remark or other dose.

cpd	mol	D2 agonist	CtBP-E1A blk	TRPML1 inh	PINK1 modulator	TRPML1 agonist	Six1-Eya2 blk
1	CC(C)NC(=O)CC1Nc2c3ccccc3nc(=S)n2C1=O (centres undefined)	0.7	2	-3	2.2%	-0.2	3
2	Cc1nc2ccc(NS(=O)(=O)c3ccc(F)cc3F)cc2s1	-0.4	1	11	4.4%	1.1	2
3	COc1ccc(-c2cc(C(F)(F)F)nc(SCCC(=O)Nc3ccccc3F)n2)cc1	.	.	-3	-1.1%	1.5	.
4	COc1cc(C(=O)NC(=S)NCc2ccncc2)cc(OC)c1OC	-3.1	-13	38	0.3%	-0.8	-12
5	C=C1CCC[C@]2(C)C[C@H]3OC(=O)C(CN4CCOCC4)[C@H]3C[C@@H]12 (some centres undefined)	-6.8	.	-20	-1.0%	1.2	4
6	COc1cc(CN2C[C@@H](CO)O[C@@H](n3cnc4c(N(C)C)ncnc43)C2)cc(OC)c1OC	-4.1	-11	.	0.6%	0.0	0
7	CCOc1ccc(-c2nnc(SCC(=O)Nc3ccc(C)cc3Cl)o2)cc1	.	.	4	5.8%	0.0	.
8	O=C(CSc1nc2c(c(=O)n1-c1ccc(F)cc1)SCC2)Nc1ccc2c(c1)OCO2	0.2	9	15	?	-0.1	-15
9	Cc1cccc(C(=O)Nc2ccc(Oc3cnccn3)cc2)c1	-2.8	1	0	2.8%	-0.2	1
10	COc1ccc(NC(=O)CCNC(=O)C2CCN(S(=O)(=O)c3ccc(F)cc3)CC2)cc1OC	1.0	3	0	-0.2%	0.1	0
11	Cc1ccc(CN2CCSc3ccc(C(=O)Nc4ccc(Cl)cc4)cc32)cc1	.	.	0	2.2%	-0.1	.
12	Cc1ccc(S(=O)(=O)N(CC(=O)N2CCOCC2)c2ccc(Br)cc2)cc1	-0.6	3	6	3.0%	19	-2
13	CCOc1cc(CNCCCN2CCOCC2)cc(Br)c1OCC(=O)Nc1cccc(C(F)(F)F)c1	4.0	1	31	-5.4%	0.9	3
14	Cc1ccc(NC(=S)NCc2ccccc2)cc1[N+](=O)[O-]	-0.8	-4	0	?	1.8	-8
15	COc1ccc(N(CC(=O)N2CC=C(c3ccccc3)CC2)S(=O)(=O)c2c(C)noc2C)cc1	0.0	-6	-5	1.1%	0.7	-4
16	COc1cccc(N2CCN(c3ccc4nnc(CCC(=O)Nc5ccc(OC)c(OC)c5)n4n3)CC2)c1	1.3	-11	34	0.1%	-0.9	-6
17	Cc1cc(S(=O)(=O)NCc2ccccc2)ccc1OCC(=O)NCc1ccncc1	-4.9	10	-7	2.3%	-0.7	1
18	CC(Oc1ccc(Br)cc1)C(=O)NNC(=O)CCN1CCN(c2ccccc2)CC1 (centres undefined)	4.0	4	8	1.6%	0.4	-6
19	Cc1cc(C(=O)NNC(=O)c2ccc(S(=O)(=O)N(C)C)cc2)c(C)o1	-2.4	11	-6	-1.2%	0.5	0
20	NS(=O)(=O)c1ccc(CCNC(=O)/C=C/c2ccc(S(=O)(=O)N3CCOCC3)cc2)cc1	1.3	4	11	0.4%	-0.5	-1
21	COc1ccc(CCNC(=O)c2cc3c(=O)n4cccc(C)c4nc3n(CC3CCCO3)c2=N)cc1 (centres undefined)	-1.1	6	4	-0.8%	0.3	-1
22	CCOc1ccc(NC(=O)CCc2nnc3n(C)c(=O)c4sccc4n23)cc1	.	.	5	2.4%	-0.4	.
23	CCOC(=O)C1(C(=O)OCC)C(c2ccccc2)CC(O)N1C(C)=O (centres undefined)	-0.3	.	2	-0.1%	-0.9	7
24	COC(=O)c1ccc(C(=O)OC)c(NC(=S)N2CCN(c3ccccc3F)CC2)c1	-5.8	0	71	-0.8%	1.4	-10
25	Cc1ccc(-c2cc(N)n3nc(-c4ccc(C)cc4)cc3n2)cc1	0.5	-3	21&-3	6.9%&17%	-0.9&-1.2	6

Record cards (already shown). Order of screens: D2 agonist	CtBP-E1A blk	TRPML1 inh	PINK1 modulator	TRPML1 agonist	Six1-Eya2 blk
COc1cc(CN2C[C@@H](CO)O[C@@H](n3cnc4c(N(C)C)ncnc43)C2)cc(OC)c1OC is listed as -4.1	-11	.	0.6%	0.0	0
Cc1ccc(NC(=S)NCc2ccccc2)cc1[N+](=O)[O-] is listed as -0.8	-4	0	?	1.8	-8
Cc1cc(S(=O)(=O)NCc2ccccc2)ccc1OCC(=O)NCc1ccncc1 is listed as -4.9	10	-7	2.3%	-0.7	1

The listing continues.
cpd	mol	D2 agonist	CtBP-E1A blk	TRPML1 inh	PINK1 modulator	TRPML1 agonist	Six1-Eya2 blk
26	CC[C@@H](C)C(NC(=O)OC(C)(C)C)c1cn([C@@H](CCCCNC(=O)OC(C)(C)C)C(=O)N2CCN(C(=O)OC(C)(C)C)CC2)nn1 (some centres undefined)	5.4	7	-7	2.6%	0.0	-1
27	COc1ccc2oc(=Nc3cc(F)ccc3F)c(C(N)=O)cc2c1	4.9	-3	-12	0.7%	1.6	-7
28	Oc1c(C(c2ccccc2Cl)N2CCN(Cc3ccccc3)CC2)sc2nc(-c3ccco3)nn12 (centres undefined)	.	.	8	5.7%	1.7	.
29	CC(C)N1CCC(N2CCN(C/C=C/c3ccccc3)CC2CCO)CC1 (centres undefined)	-1.1	3	2	1.6%	0.2	1
30	O=C(NC(=O)c1ccccc1)Nc1ccc(Cl)cn1	-1.1	6	-3	-0.3%	-0.1	1
31	O=C(Nc1ccc(S(=O)(=O)Nc2ncccn2)cc1)c1nn(Cc2ccccc2)c(=O)c2ccccc12	-0.2	2	-5	0.5%	1.4	-12
32	Cc1ccc2oc3c(c(=O)c2c1)C(c1ccccc1F)N(CCCN(C)C)C3=O (centres undefined)	.	.	4	1.6%	0.2	.
33	CCC(=O)c1ccc(OCC(O)CN2CCCCC2)cc1 (centres undefined)	-1.2	8	-13	-14%[38.3 µM]	1.5	4
34	O=C(COc1ccccc1)NC(=S)Nc1ccc2c(c1)Cc1ccccc1-2	-0.2	3	5	1.8%	0.2	13
35	NC(=O)[C@H]1CC2(CC(c3cccc(NC(=O)[C@H]4CCC(=O)N4)c3)=NO2)CN1C(=O)c1ccccc1C(=O)c1ccccc1 (some centres undefined)	-4.4	9	-10	0.8%	-0.4	1
36	O=C(NCC1CCCO1)C(c1ccc(F)cc1)N(C(=O)Cn1nnc(-c2ccc(F)cc2)n1)c1cccc(O)c1 (centres undefined)	2.1	-4	21	2.4%	2.7	6
37	CCOc1ccc(N(CC(=O)Nc2ccccc2OCC)S(=O)(=O)c2c(C)noc2C)cc1	-0.2	.	-2	7.1%	1.0	1
38	Cc1cc(Br)cn2c(Cc3ccsc3)c(-c3ccc(F)cc3)nc12	-3.8	2	18	-0.4%	1.8	-2
39	CCCCOc1cc(NCc2ccccc2)c2ncn(C(C)C)c2c1	3.6	?	33	-2.0%	3.2	?
40	Cc1ccc(C(=O)N2CCC(N3CCN(Cc4ccc(F)cc4)C(=O)C3=O)CC2)cc1	.	.	16	2.6%	-0.1	.
41	CCN1CCN(S(=O)(=O)c2ccc(Cl)c(C(=O)N(C)C3CCCCC3)c2)CC1	0.4	11	-8	1.0%	-0.5	6
42	CC(C)C(=O)Nc1ccc(C(=O)NNC(=O)CCCOc2ccc(Cl)cc2Cl)cc1	2.5	-6	-3	-2.4%[38.3 µM]	0.2	1
43	CCOC(=O)c1nnc2cc(-c3ccc(Br)cc3)nn2c1C	0.1	-2	7	-0.3%	-0.8	-3
44	CCOc1cccc(C(=O)NC(=S)NCc2cccnc2)c1	3.1	3	7	-1.0%	1.6	-3
45	CC1C(=O)N2CCCc3cc(S(=O)(=O)N(C)Cc4ccccc4)cc1c32 (centres undefined)	0.7	.	-5	0.8%	3.6	1
46	CC(O)Cc1nsc(NC(=O)c2cccs2)n1 (centres undefined)	-2.3	2	-3	1.8%	-0.8	1
47	CCSc1ncc(Cl)c(C(=O)Nc2ccc(S(=O)(=O)N(C)c3ccccc3)cc2)n1	.	.	-19	10%	0.0	.
48	COc1cc(/C=N/NC(=O)C(=O)NCc2ccco2)cc(Br)c1O	-3.6	-5	18	-0.7%	-0.1	-14
49	Cc1ccc(OCC(=O)Nc2sc3c(c2C#N)CC(C)(C)NC3(C)C)cc1	-2.5	5	4	7.1%	-0.8	-8
50	Cc1ccc(N(CC(=O)NCC2CCCO2)C(=O)Cn2nnc(-c3cccs3)n2)cc1 (centres undefined)	-4.3	1	21	0.0%	1.2	-8

cpd	mol	D2 agonist	CtBP-E1A blk	TRPML1 inh	PINK1 modulator	TRPML1 agonist	Six1-Eya2 blk
51	Cc1cccc(NC(=O)NC(=S)NC(=O)c2ccccc2)c1	-8.3	-1	-2	5.1%	-0.7	-10
52	Cc1cccc(OCC(=O)Nc2ccc3nc(SCc4ccccc4)sc3c2)c1	.	.	-2	2.8%	-0.6	.
53	c1ccc(-c2ccc3ncccc3n2)cc1	3.8	-14	.	0.6%	-0.2	2
54	O=S(=O)(NCCN1CCN(S(=O)(=O)c2ccccc2F)CC1)c1ccccc1F	-1.3	-15	14	0.9%	0.1	-25
55	CCc1cc2c(=O)n(CC(=O)NCCc3ccc(OC)c(OC)c3)cnc2s1	-5.0	-14	-3	0.6%	-0.3	9
56	O=C(COc1ccc2c(c1)OCO2)Nc1ccc2c(c1)oc1ccccc12	1.6	4	-1	19%	-0.4	-20
57	O=C(NCCCn1ncc2ccccc21)c1cc(COc2c(F)cccc2F)on1	0.0	5	0	6.9%	1.4	7
58	Cc1nc2sc(C(c3ccc(F)cc3)N3CCN(C(=O)c4ccco4)CC3)c(O)n2n1 (centres undefined)	-0.2	-7	-10	-0.4%	2.2	1
59	COc1ccc(-c2noc(-c3ccc(NC4CCCC4)c([N+](=O)[O-])c3)n2)cc1OC	.	.	-22	0.8%	-0.7	.
60	COc1ccccc1NC(=O)CN1C(=O)C(C)Oc2ccccc21 (centres undefined)	-0.1	11	0	?	0.2	2
61	Cc1cc(C)cc(NC(=O)CCCn2c(=O)c3cccn3c3ccccc32)c1	.	.	-22	2.2%	4.6	.
62	CCCCC(=O)Nc1ccc(C(=O)Nc2cccnc2)cc1	-3.3	-8	-4	42%[38.3 µM]	-0.2	-4
